Bioassay records: PubChem BioAssay, ICCB-Longwood Screening Facility, Harvard Medical School
GIV Gai3 FP = blocks GIV peptide binding to rat Galpha-i3. Galpha-i3/FITC-GIV peptide fluorescence polarization, 90 min; active compounds read low; scaled: aluminum fluoride 0%, vehicle 100%. percent of control (FP), % (test concentration not listed). 0.42% of 210,000 active;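 active means replicate mean at 85% of control or lower, very high polarization wells dropped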;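 further: lower values mean more displacement of the GIV peptide from Galpha-i3; wells of about 15 µL received 100 nL stock; the first replicate is given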
Target sequence (P08753 whole entry, looked up): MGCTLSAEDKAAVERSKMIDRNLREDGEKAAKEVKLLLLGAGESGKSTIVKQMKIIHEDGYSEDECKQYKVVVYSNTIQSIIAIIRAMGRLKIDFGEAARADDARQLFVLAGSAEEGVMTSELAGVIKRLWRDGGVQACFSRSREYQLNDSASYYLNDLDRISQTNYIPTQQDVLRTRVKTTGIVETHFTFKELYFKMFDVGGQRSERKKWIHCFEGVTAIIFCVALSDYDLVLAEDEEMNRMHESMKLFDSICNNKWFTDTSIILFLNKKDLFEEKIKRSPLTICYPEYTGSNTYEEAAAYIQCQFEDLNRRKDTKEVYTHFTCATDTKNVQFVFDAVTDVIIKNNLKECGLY
Active calls of the source: *. A portion of the library; rates above refer to the full screens.

SMILES | GIV Gai3 FP
O=C(c1cnn2c1CCCC2)N1CCCC1 | 99
Nc1c(C(=O)NC2CC2)sc2nc(-c3ccccc3)cc(-c3ccc(F)cc3)c12 | 102
CC(C)NC(=O)C1=CSCCO1 | 103
CN(CC1CCCO1)S(=O)(=O)c1ccc(C(=O)Nc2nc(-c3cccnc3)cs2)cc1 (centres undefined) | 100
CCN(CC)CCNc1ncnc2c1nnn2C | 107
CCC12CN3CC(CC)(CN(C1)C3c1cccc(C)c1)C2=O (centres undefined) | 108
CN(c1ccc(Br)cc1)S(=O)(=O)c1ccc2[nH]cc(C(=O)N3CCCCCC3)c(=O)c2c1 | 109
O=C(NC1CCCc2ccccc21)c1ccc(-c2nccc(Oc3ccccc3)n2)cc1 (centres undefined) | 100
Cc1ccccc1OCC(=O)Nc1ccccc1SCc1nnc(-c2ccccc2)o1 | 100
COc1ccc2c(c1)NC1(CCN(C(=O)NCC(C)C)CC1)c1cccn1-2 | 97
CCOc1ccc(NC(=O)c2sc(=S)n(-c3ccc(Cl)c(C)c3)c2N)cc1 | 112
Cc1[nH]c(C)c(S(=O)(=O)NCc2cccs2)c1-c1nnc(C2CCC2)o1 | 107
CCCOc1ccc(N2C(=O)C3C4c5ccccc5C(C(C)=O)(c5ccccc54)C3C2=O)cc1 (centres undefined) | 109
CCCC(CCC)C(=O)Nc1ccc2c(c1)N(C(=O)CCl)c1ccccc1CC2 | 108
CCCn1c(CCc2ccccc2NS(=O)(=O)c2cnc[nH]2)nc2ccccc21 | 103
Clc1nc(-c2ccccc2)cc(-c2cnc(N3CCCCC3)nc2N2CCCCC2)n1 | 112
O=C(C1CCN(c2nccc(N3CCCC3)n2)CC1)N1CCC2(CC1)OCCO2 | 104
Cc1nn(-c2nc3ccccc3o2)c2c1C(c1ccc(F)c(F)c1)CC(=O)N2 (centres undefined) | 100
CCCCNC(=O)CSc1nc2c(sc(=S)n2-c2ccc(OCC)cc2)c(=O)[nH]1 | 111
O=C(CSc1nnc2c(n1)[nH]c1ccccc12)N(CCO)CCO | 107
Cc1ccc(CNS(=O)(=O)c2c(C)[nH]c(C)c2-c2nnc(C3CCC3)o2)o1 | 100
O=C(NCc1ccc(Br)cc1)C1CCCN(c2ncc(-c3ccccc3)cn2)C1 (centres undefined) | 103
O=S(=O)(Cc1ccc(Cl)cc1)Nc1ccc(Cn2cncn2)cc1 | 102
CCCCOc1ccccc1C1C(C(=O)OCC)=CN(Cc2ccc(OC)c(OC)c2)C=C1C(=O)OCC | 105
CCCCOc1ccc(C(=O)NCCc2sc3nc(-c4ccc(C)cc4)nn3c2C)cc1 | 98
O=C(NC1CCCCC1)c1ccc(C2Nc3ccccc3S(=O)(=O)N2)cc1 (centres undefined) | 95
Cc1ccc(NC(=O)CSC2=C(C#N)C(c3cccs3)C3=C(CCCC3=O)N2)cc1Cl (centres undefined) | 109
Cc1ccc(N2C(=O)CS(=O)(=O)C2c2ccccc2F)cc1C (centres undefined) | 113
COC(=O)c1ccccc1NC(=O)Cn1c(=O)c(CCC(=O)NC2CCCCC2)nc2ccccc21 | 101
CCc1onc(C)c1C1CCCN1C(=O)Nc1ccc(Br)cc1F (centres undefined) | 101
O=S(=O)(NC1CCCCC1)c1ccc(-c2cnc(C3CCCC3)o2)s1 | 109
CCCS(=O)(=O)c1nc2ccc(NS(=O)(=O)c3c(C)cc(C)cc3C)cc2s1 | 109
O=C(NC(Cc1c[nH]c2ccccc12)C(=O)Nc1ccc(Br)cc1)OCc1ccccc1 (centres undefined) | 110
Cc1ccc(C)c(NC(=O)N2CCCC2c2c(C)noc2C)c1 (centres undefined) | 106
Cc1ccccc1-c1cc2n(C)c(C)c(CCC(=O)NCc3ccc4c(c3)OCO4)c(=O)n2n1 | 112
COc1ccc(C2(c3ccc(OC)cc3)C=Cc3c4c(c5ccccc5c3O2)-c2ccccc2C4=O)cc1 | 110
COc1ccc(NC(=O)C2CCN(c3c(NC(C)=O)c(C)nn3-c3ccccc3)CC2)cc1 | 104
NS(=O)(=O)c1ccc(CCNc2ncnc3c2c(-c2ccccc2)cn3-c2ccc(Cl)cc2)cc1 | 111
Cc1ccc(C(=O)NCc2ccc(-c3nn4cnnc4s3)cc2)cc1 | 99
Cc1ccc(C(=O)OCCN(Cc2ccccc2)C2=NS(=O)(=O)c3ccccc32)cc1 | 106
O=[N+]([O-])c1ccc(Cl)c(S(=O)(=O)Nc2cc(Cl)c3oc4c(c3c2)CCCC4)c1 | 109
COc1ccc(/C=C2/CC(C)C/C(=C\c3ccc(OC)c(OC)c3)C2=O)cc1OC (centres undefined) | 107
CC(C)c1nn2c(S(=O)(=O)N3CCCCC3)c(C(C)C)nc2s1 | 105
CC(=O)Nc1cc2c(C)cc(=O)oc2c2c1O/C(=C\c1ccc(Cl)cc1)C2=O | 121
COc1ccc(NS(=O)(=O)c2c(C)nn(-c3ccc(-c4ccc(C)cc4)nn3)c2C)cc1F | 109
Nc1cccc(-c2nnc(Cc3ccc4c(c3)OCO4)o2)c1 | 109
CN(CC1CCCO1)S(=O)(=O)c1ccc(C(=O)Nc2nc3c(F)cccc3s2)cc1 (centres undefined) | 96
O=C(Nc1ccc2c(c1)OCO2)c1nnc(C2CCN(S(=O)(=O)c3ccc(F)cc3)CC2)s1 | 106
Clc1cccc(-c2nnc(-c3nc(NCc4cccnc4)c4ccccc4n3)o2)c1 | 103
O=C(Nc1ccccc1Br)N1CCCCCC1c1cccs1 (centres undefined) | 107
COc1cc(NC(=O)c2cc3c(C)nn(-c4ccc(F)cc4)c3s2)cc(OC)c1 | 105
Cc1ccc2nc(N3CCC(C(=O)NCCN4CCN(c5ccccc5F)CC4)CC3)[nH]c2c1 | 108
Cc1c(N(CC(=O)N/N=C/c2ccc3c(c2)OCO3)S(=O)(=O)c2ccccc2)c(=O)n(-c2ccccc2)n1C | 102
COc1ccc(CCNS(=O)(=O)c2cc(-c3nc(C)cs3)sc2C)cc1OC | 140
CCOC(=O)N1CCN(C(=O)c2sc3ncn(CC(=O)Nc4ccccc4OC)c(=O)c3c2C)CC1 | 109
Cc1ccc(C)c(NC(=O)Nc2ccccc2OCc2cc(=O)n3cccc(C)c3n2)c1 | 104
CCC(C)NS(=O)(=O)c1ccc2c(c1)C(C)(C)CN2CC(=O)N1CCCC1 (centres undefined) | 105
Cc1ccc(C2CCCCCN2C(=O)NCCC(C)C)s1 (centres undefined) | 102
CCOC(=O)c1c(NC(=O)c2ccc(Cl)cc2)sc2c1CCN(C(C)C)C2 | 186
O=S(=O)(Cc1noc(-c2nccc3ccccc23)n1)c1ccc(Cl)cc1 | 105

Other records.
SMILES | GIV Gai3 FP
CCOC(=O)C1=CN(Cc2ccc(Cl)cc2)C=C(C(=O)OCC)C1c1cc2c(cc1Br)OCO2 | 111
CC(C)NC(=O)Cn1nc2c(N3CCSCC3)nccn2c1=O | 102
CCN1CCN(C(=O)c2sc3ncnc(N4CCN(c5ccccc5)CC4)c3c2C)CC1 | 101
CCCCN1C(=O)C2CCC(=O)CC2C1=O (centres undefined) | 116
CCOC(=O)c1nc2cc3c(cc2n(Cc2ccccc2)c1=O)N(C(C)=O)CC3 | 102
CC(C)Cn1c2c(c(O)c(C(=O)Nc3nc(C45CC6CC(CC(C6)C4)C5)cs3)c1=O)CCCC2 | 118
CCCS(=O)(=O)c1c(S(=O)(=O)CCC)c2ccccn2c1C(=O)c1ccc(OC)cc1 | 107
O=C(Nc1ccc(N2CCN(C(=O)c3ccccc3)CC2)c(Cl)c1)c1cccc(-n2cnnc2)n1 | 104
COC(=O)C1C(c2ccc(O)cc2)C(C(=O)OC)S(=O)(=O)C(=NNc2ccc(OC)cc2[N+](=O)[O-])S1(=O)=O (centres undefined) | 101
COc1ccccc1NC(=O)C1CCCN(Cc2noc(-c3ccc(C)cc3)n2)C1 (centres undefined) | 98
C=CCSC1=NC2(CC(c3ccccc3)c3cc(Cl)c(O)cc3O2)CC(C)(C)N1 (centres undefined) | 101
O=C1c2ccccc2C(=O)C12OC(c1ccc(Cl)cc1)C1(C(=O)c3ccccc3C1=O)C2c1ccc(F)cc1 (centres undefined) | 107
O=C(CC1CCCC1)N1CCCN(Cc2noc(-c3ccccc3)n2)CC1 | 103
O=C(Cc1c(F)cccc1Cl)Nc1cc(C(=O)Nc2ccncc2)ccc1N1CC2CC(C1)c1cccc(=O)n1C2 (centres undefined) | 108
COc1ccc(NC(=O)Nc2nnc(SCC(=O)NCc3ccc4c(c3)OCO4)s2)cc1 | 101
CCOc1ccccc1NC(=O)CSc1nc2ccccc2c(=O)[nH]1 | 102
CCc1n[nH]c(=O)c2cc(S(=O)(=O)N3CCOCC3)cn12 | 98
O=C(c1ccc(F)cc1)c1ccc(-c2nc3ccccc3nc2-c2ccccc2)cc1 | 116
CC(=O)Oc1ccc(-c2cc(-c3ccc(OC(C)=O)cc3)nc(-c3ccccc3)n2)cc1 | 107
CCOC(=O)c1[nH]c2cc3[n+](c(CC(C)C)c2c1C)C(C)C(C)=C3C (centres undefined) | 119
CCOC(=O)N1CCN(C(=O)c2sc3ncnc(N(C)c4ccccc4)c3c2C)CC1 | 105
CCN1C(=O)/C(=c2/s/c(=C3\Sc4ccccc4N3C)c(=O)n2CC)N(C)C1=S | 116
CC(C)NC(=O)CCc1nc(CS(=O)(=O)c2ccccc2)no1 | 107
O=S(=O)(NC1CCCC1)c1cc(-c2nc(-c3ccc(Cl)cc3)no2)cs1 | 100
CCOC(=O)c1c(NC(=S)NCCc2ccccc2)sc2c1CC(C)(C)OC2 | 113
CCCCNS(=O)(=O)c1ccc2c(c1)C(=O)c1cc(S(=O)(=O)NCCCC)ccc1-2 | 102
O=C(NCC1CCCO1)c1nc(CS(=O)(=O)c2ccc(Cl)cc2)no1 (centres undefined) | 105
O=C1CC(c2ccc(-c3ccccc3)cc2)c2cc(Br)c3ccccc3c2N1 (centres undefined) | 106
O=C(NCC1CC1)c1sc2ncccc2c1-n1cccc1 | 101
Cc1cn(C2OC(COC(=O)c3ccccc3)C(OC(=O)c3ccccc3)C2OC(=O)c2ccccc2)c(=O)[nH]c1=O (centres undefined) | 103
Cc1ccc(NC(=O)C2C3CCCC2C3c2ccccc2)cc1 (centres undefined) | 107
Cc1ccc(S(=O)(=O)Nc2ccc3c(c2)c2c(n3S(=O)(=O)c3ccc(C)cc3C)CC(C)(C)CC2=O)c(C)c1 | 109
COC(=O)c1cc(Nc2nc(C)nc3sc4c(c23)CCC4)cc(C(=O)OC)c1 | 111
COc1ccc(N(CC(O)Cn2c3ccc(Cl)cc3c3cc(Cl)ccc32)S(=O)(=O)c2ccc(C)cc2)cc1 (centres undefined) | 101
CC1=C(C(=O)OCc2ccc3c(c2)OCO3)C(c2ccc(Cl)c(Cl)c2)NC(=O)N1 (centres undefined) | 105
CCOC(=O)c1c(CN2CCCCC2)n(C)c2cc(Br)c(OC)cc12 | 104
COc1ccc(C2(O)C(C)N(c3ccccc3)C3=[N+]2CCCS3)c(F)c1 (centres undefined) | 113
COc1cc(/C=C2/C(=O)N(c3ccc(C(=O)O)cc3)N=C2C)ccc1OC(=O)c1cccs1 | 105
CCOc1ccc(NC(=O)c2c(NC(=O)c3ccccc3)sc3c2CCCCC3)cc1 | 109
NC1=NC(=O)/C(=C/c2cn(Cc3ccc(Cl)c(Cl)c3)c3ccccc23)S1 | 128
COC(=O)Cn1nc2ccc(S(=O)(=O)N3CCC(C)CC3)cn2c1=O | 100
Cc1ccc(-c2nc3n(c2CNC(=O)c2cncc(Br)c2)CCS3)cc1 | 97
CC(=O)c1c(C)n(S(=O)(=O)c2ccccc2)c2ccc(NS(=O)(=O)c3ccccc3)cc12 | 106
CCN1C(=O)COc2ccc(-c3noc(C(C)Oc4ccccc4)n3)cc21 (centres undefined) | 106
CCN1CCN(C(=O)c2cc3sc(C)c(CN4CCCC4)c3[nH]2)CC1 | 116
CC1(C)CC(=O)C2=C(C1)Nc1ccc3ccccc3c1C2c1ccc([N+](=O)[O-])cc1 (centres undefined) | 107
CCOc1cc(C2C(C(=O)OC)=CN(Cc3ccc(OC)cc3)C=C2C(=O)OC)cc(Br)c1OC | 108
Cc1ccc(N(CC(O)CN2CCCC2)S(=O)(=O)c2ccc(C)cc2)cc1 (centres undefined) | 107
CCN1CCN(C(=O)C2(c3ccc(NS(=O)(=O)CC)cc3)CCCCC2)CC1 | 101
Cc1cc(N(C)C)n2nc(CN3CCCC(C)C3)nc2n1 (centres undefined) | 100
Cn1c(=O)n(Cc2ccc(F)cc2Cl)c(=O)c2cnc(-c3cccnc3)nc21 | 105
CCc1ccc(NC(=O)Cn2nc(C(=O)Nc3ccccc3)ccc2=O)cc1 | 100
